Mtb bLac sens – beta-lactam sensitization of Mtb H37Rv; M. tuberculosis H37Rv growth with meropenem, percent inhibition; hits of this screen are not shown here; inhibition, % at 25 µM; 330,000 compounds, 0.27% hits; AID 434955;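 active = about 74% or more and at least 40 points above the plate without the antibiotic, then above 30% in a dose series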;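 note: growth measured after seven days incubation then overnight dye step; 0% = bacteria only wells and 100% = bacteria with antibiotic; twin plates without the antibiotic show which effects depend on it; some results filed as inactive read as strong as hits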
YopH PTP inh – YopH (Yersinia) phosphatase inhibition; fluorescence Ex485/Em525; inhibition, %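 (about 10 µM by stock and volumes)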; 140,000 compounds, 0.16% hits; AID 898;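 active = inhibition of 50% or more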;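 note: controls were vehicle for no effect and minimum signal wells for full effect; inactives centre near -20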
RecA intein inh – inhibitors of M. tuberculosis RecA intein splicing | cell-free RecA intein splicing, fluorescence | inhibition, %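 (about 9 µM by stock and volumes)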 | 290,000 compounds, 0.75% hits | P9WHJ3; in the data active = inhibition above about 30%;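 note: 0% = vehicle wells and 100% = reference inhibitor control wells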
Target sequence (P9WHJ3 whole entry, looked up): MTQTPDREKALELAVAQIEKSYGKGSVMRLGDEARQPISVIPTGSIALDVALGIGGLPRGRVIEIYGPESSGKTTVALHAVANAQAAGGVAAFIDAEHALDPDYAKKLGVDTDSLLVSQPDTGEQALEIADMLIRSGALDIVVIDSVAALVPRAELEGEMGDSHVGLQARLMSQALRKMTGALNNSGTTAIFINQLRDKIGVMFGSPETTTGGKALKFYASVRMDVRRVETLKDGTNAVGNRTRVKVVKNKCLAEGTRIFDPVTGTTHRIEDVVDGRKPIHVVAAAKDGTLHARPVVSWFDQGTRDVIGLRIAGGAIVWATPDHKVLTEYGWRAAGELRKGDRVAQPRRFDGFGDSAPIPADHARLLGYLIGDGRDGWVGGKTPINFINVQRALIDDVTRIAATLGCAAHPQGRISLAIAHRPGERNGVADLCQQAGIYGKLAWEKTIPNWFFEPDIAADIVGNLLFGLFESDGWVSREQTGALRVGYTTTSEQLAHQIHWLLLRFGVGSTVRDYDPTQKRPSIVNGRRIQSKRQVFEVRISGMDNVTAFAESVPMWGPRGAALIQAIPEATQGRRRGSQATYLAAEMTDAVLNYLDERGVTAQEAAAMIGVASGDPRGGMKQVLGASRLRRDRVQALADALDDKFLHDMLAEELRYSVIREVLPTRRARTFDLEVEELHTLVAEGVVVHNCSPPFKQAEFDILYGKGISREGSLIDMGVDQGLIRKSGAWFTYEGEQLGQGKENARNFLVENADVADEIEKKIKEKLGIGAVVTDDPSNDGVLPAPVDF
Arbovirus inh – antivirals against arbovirus infection; arbovirus infection cell-based antiviral screen; inhibition, % at 10 µM; 200,000 compounds, 0.37% hits;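 active = inhibition from about 30%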;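 note: bluetongue infection of BSR cells; cell survival read as ATP light after 72 h; 0% = infected wells without compound and 100% = uninfected wells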
Mtb growth – M. tuberculosis H37Rv growth inhibitors, H37Rv strain (AID 1626); M. tuberculosis H37Rv growth inhibition; higher % means a stronger effect; inhibition, % at 10 µM, or IC50 in µM where a hit was titrated; 220,000 compounds, 0.95% hits;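 active = confirmed in a dose series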;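 note: bacteria incubated seven days before Alamar blue readout; 0% = bacteria only wells and 100% = bacteria with antibiotic wells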
Arbovirus inh repeat – recorded beside Arbovirus inh, whose call it bears; inhibition, %; measured here: 10K subset replicate screen; many hits read low in the repeat;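 first of two repeat runs on a subset; 0% = infected and 100% = uninfected wells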
Numbers without * were called inactive; · = no result given. Only part of the results is shown; the hit share may differ from the screen's.

Sample of the layout, five compounds:
SMILES	Mtb bLac sens	YopH PTP inh	RecA intein inh	Arbovirus inh	Mtb growth	others
CN1C(=O)c2cccc(N(C)C)c2C1=O	-1	-7	-1.0	3	1%
Cc1ccc(S(=O)(=O)CCNC(=O)Cc2ccc(Cl)cc2)cc1	-4	·	-0.6	0	3%
O=C(Cc1ccccc1Cl)N/N=C/c1cccnc1	-1	·	-0.1	·	·
Cc1ccc(-n2ncc3c(NCc4ccco4)ncnc32)cc1C	44	·	1.4	-1	18%
O=C(NCc1ccco1)/C(=C/c1ccc(Cl)cc1)NC(=O)c1ccco1	-8	·	2.2	·	·

The whole of this part, repeating the preview:
SMILES	Mtb bLac sens	YopH PTP inh	RecA intein inh	Arbovirus inh	Mtb growth	others
CN1C(=O)c2cccc(N(C)C)c2C1=O	-1	-7	-1.0	3	1%
Cc1ccc(S(=O)(=O)CCNC(=O)Cc2ccc(Cl)cc2)cc1	-4	·	-0.6	0	3%
O=C(Cc1ccccc1Cl)N/N=C/c1cccnc1	-1	·	-0.1	·	·
Cc1ccc(-n2ncc3c(NCc4ccco4)ncnc32)cc1C	44	·	1.4	-1	18%
O=C(NCc1ccco1)/C(=C/c1ccc(Cl)cc1)NC(=O)c1ccco1	-8	·	2.2	·	·
CCOc1ccc(C(=O)NC(=S)Nc2ccc(NC(=O)c3ccco3)cc2)cc1[N+](=O)[O-]	12	-17	-0.7	-6	14%
O=C(O)C1CC=CCC1C(=O)NC12CC3CC(CC(C3)C1)C2 (centres undefined)	1	-16	0.3	10	-19%
COc1ccc(NC(=O)c2ccccc2NC(=O)c2ccco2)c(OC)c1	2	0	-0.3	1	0%
Cc1ccc(C2CC(=O)c3cnn(-c4nc(C)cc(C)n4)c3C2)cc1 (centres undefined)	2	-6	1.6	36*	13%
O=C1CC(c2ccccc2)Oc2cc(O)cc(O)c21 (centres undefined)	-4	·	-2.5	·	7%
CN(C)CCCNc1oc(-c2ccc(Cl)cc2)nc1C#N	51	-21	2.2	-18	-1%
CC1(C)Cc2c(sc(NC(=O)c3ccco3)c2C(=O)O)CO1	11	-16	4.2	13	-15%
CCOC(=O)C1CCCN(C(=O)c2ccc(S(=O)(=O)N3CCCC3)cc2)C1 (centres undefined)	-2	·	-0.2	·	·
O=S1(=O)C=CC(Nc2cccc(Cl)c2)C1 (centres undefined)	3	-28	2.1	15	3%
CC(c1cccs1)N(C(=O)Nc1ccccc1)C1CCCCC1 (centres undefined)	-2	-115	-0.6	9	-9%
Cc1ccc(NC(=O)c2cnccn2)cc1C	5	·	2.2	·	·
O=C(NCc1ccco1)c1ccccc1O	2	·	-2.1	·	·
O=C1Nc2ccccc2C1(O)c1ccccc1 (centres undefined)	-5	·	0.5	0	-1%
O=C(NCc1ccco1)Nc1ccc(Br)cc1Cl	-3	-41	1.7	-22	-11%
CCc1ccccc1NC(=O)CSc1nnc(Cn2nnc3ccccc32)n1C	6	-32	3.9	4	1%
CCCCNC(=S)Nc1ccccc1F	-3	-21	-1.7	11	4%
Cn1sc(NC(=O)c2ccccc2)nc1=O	3	-26	-4.3	5	-14%
Nc1ncnc2c1ncn2[C@H]1C[C@H](O)[C@@H](COP(=O)(O)O)O1	-6	-31	-1.9	4	-2%
Cc1ccccc1OCc1nc2ccc(S(=O)(=O)N3CCOCC3)cc2[nH]1	-20	-13	1.4	-1	-1%
Cc1ccccc1C(=O)NN(C)c1nc2ccccc2nc1C(F)(F)F	-9	-9	-4.1	-1	5%
COc1ccc(CNC(=O)c2sccc2C)cc1	2	·	0.2	·	·
COC(=O)c1sccc1NC(=O)Nc1ccc(C(C)=O)cc1	-1	·	1.7	·	·
Cc1onc(-c2c(Cl)cccc2Cl)c1C(=O)N1CCN(c2ccccc2)CC1	1	·	-1.4	-10	2%
CCCn1c(=O)c(/C(N)=N/O)nn(-c2cccc(C(F)(F)F)c2)c1=O	-1	·	0.5	·	-4%
CCCN(C(=O)COC(=O)CCOc1ccccc1C)c1c(N)n(Cc2ccccc2)c(=O)[nH]c1=O	-7	·	0.3	·	·
CCn1cc(C(C)NC(=O)COc2ccc(Cl)cc2C)c(C)n1 (centres undefined)	-2	-25	-0.9	3	-10%
CCc1ccc(NC(=S)N(Cc2ccccc2)Cc2ccccn2)cc1	-5	·	5.6	12	-7%
COc1ccc(C2CCCN2C(=S)Nc2ccccc2C)cc1OC (centres undefined)	-6	·	-0.4	1	0%
FC(F)Sc1nc2ccccc2[nH]1	-8	·	3.3	·	-8%
CN(CCC#N)C(=O)COC(=O)c1ccc(CNS(=O)(=O)c2ccc(F)c(Cl)c2)cc1	7	-25	-6.0	4	2%
CSc1cc(C)n(-c2ccccc2)c(=S)c1C(C)=O	8	-19	-5.6	0	-6%
COCCCNC(=O)c1ccc(S(=O)(=O)c2ccc(Cl)cc2)c(NC(C)=O)c1	0	·	-1.6	·	·
CC(=O)N1CCC2(CC1)CC(=O)c1cc(Cl)ccc1O2	-5	·	1.1	·	12%
COc1cccc(CC(NC(C)=O)C(=O)NC2CCN(S(=O)(=O)c3ccc(NC(C)=O)cc3)CC2)c1OC (centres undefined)	-7	·	-0.6	·	·
N/C(=N\OC(=O)CCC1CCCC1)c1ccc([N+](=O)[O-])cc1	2	·	-1.6	-6	1%
Cn1c(OCc2cccnc2)nc2c1c(=O)n(Cc1ccc(Br)cc1)c(=O)n2C	97	-30	-1.4	8	5%
CC(=O)c1nn(-c2ccc(C)cc2)cc1C(=O)c1cccc(Br)c1	3	·	-0.1	·	·
CC1CCC(NC(=O)Cn2c(=O)[nH]c3ccsc3c2=O)CC1 (centres undefined)	-8	-41	-1.3	-1	-1%	Arbovirus inh repeat=-2
O=C(N1CCOCC1)N1CCN(c2nc(-c3ccc(F)cc3)cs2)CC1	-4	-46	5.7	18	6%
CN1CCN(C(=S)c2cn(Cc3ccccc3)c3ccccc23)CC1	-3	·	2.4	10	7%
CCOc1ccc(-c2cc(N)n(S(=O)(=O)c3ccc(OC)c(OC)c3)n2)cc1	-5	-34	2.2	-1	-4%
Cc1nc(-c2cccc(S(=O)(=O)N3CCCCC3)c2)cs1	-9	·	0.6	·	-14%
CCOc1ccc(S(=O)(=O)c2c(C(=O)c3ccc(C)cc3)cnc3cc4c(cc23)OCCO4)cc1	0	-22	6.7	16	9%
CC(=O)Nc1ccc(/C=C/c2noc(-c3ccccc3O)n2)cc1	7	·	-1.8	·	·
Cc1cccc(C)c1NC(=O)CNC(=O)c1cccnc1	-1	·	-0.6	·	·
CC(C)CCn1c(Sc2nc3ccccc3s2)nc2c1c(=O)[nH]c(=O)n2C	0	8	0.3	1	-4%
Cn1c(=O)c(C(=O)CSc2nncs2)c(N)n(Cc2ccccc2)c1=O	-4	-20	2.0	-10	1%
COC(=O)C1=C(N)N(c2ccccc2C(F)(F)F)C2=C(C(=O)CCC2)C1c1ccc2c(c1)OCO2 (centres undefined)	2	3	0.4	6	-9%
Cc1c(NC(=O)c2ccco2)cccc1C(=O)NN1C(=O)c2ccccc2C1=O	-6	·	0.6	0	-5%
CC(=O)c1cccc(NCC(=O)Nc2cccc(S(=O)(=O)N3CCCCC3)c2)c1	-8	·	-1.0	·	·
CC1(C)CC(C(CC(=O)O)c2ccccc2)CCO1 (centres undefined)	-2	-49	-0.4	3	-5%
O=C(NCCCn1ccnc1)c1cc([N+](=O)[O-])cc([N+](=O)[O-])c1	-4	0	-3.6	-4	-6%
COC(=O)c1ccc(/C=N/OCC(=O)NCc2ccc(F)cc2)cc1	-2	·	-4.0	-2	6%
Cc1ccccc1OCC(=O)N/N=C/c1cn(C)c2ccccc12	63	·	-0.3	·	2%
N#CC(c1ccccn1)c1ncc(C(F)(F)F)cc1Cl (centres undefined)	-12	·	-0.3	5	0%
Other compounds:
SMILES	Mtb bLac sens	YopH PTP inh	RecA intein inh	Arbovirus inh	Mtb growth	others
O=C1c2ccccc2NC(c2ccco2)N1NS(=O)(=O)c1ccccc1 (centres undefined)	-12	·	-3.4	0	-2%
CCCC(C(=O)NC1CCCC1)N(Cc1ccccc1)C(=O)c1snc(C(N)=O)c1N (centres undefined)	-4	·	-1.8	·	·
Clc1ccccc1-c1csc(Nc2cccnc2)n1	3	·	-2.2	·	11%
O=c1c2ccccc2oc2nc3ccn(Cc4ccncc4)c(=O)c3cc12	·	3	·	4	-2%
CCOC(=O)N1CCC(n2c(=S)[nH]c3cc(OCC)c(OCC)cc3c2=O)CC1	2	-36	1.3	3	-4%
CCc1c(C)nc(N)c(C#N)c1-c1ccccc1	0	·	3.1	4	-2%
C/C(=N/NC(=O)CNC(=O)COc1ccccc1)c1ccc(Cl)cc1	4	·	-3.1	·	·
CCOc1ccc(NC(=S)NC2CC3CCC(C2)N3Cc2ccco2)cc1 (centres undefined)	-1	·	-0.4	5	4%
Cc1ccnc(OC(C(=O)O)C(OCc2ccccc2)(c2ccccc2)c2ccc(C(F)(F)F)cc2)n1 (centres undefined)	4	·	12	·	·
CCOC(=O)c1c(CN2CCN(CCO)CC2)n(C)c2cc(Br)c(OC)cc12	-10	0	1.4	-37	1%
C[C@H](NC(=O)c1cc2c([nH]c3ccccc32)c(-c2ccccc2)n1)C(=O)O	-7	·	0.1	·	·
Cc1c(C(=O)Nc2ccc3c(c2)OCCO3)sc2nc(-c3ccccc3)cn12	-1	-6	-1.4	-21	9%
CCN(CC)C(=O)CSc1nc2ccccc2c(=O)n1OC(C)C	-3	-19	2.6	2	-10%
CC(=O)Nc1ccc(C(=O)Nc2ccc(S(=O)(=O)N3CCOCC3)cc2)cc1	3	·	-0.5	·	·
CC(SC#N)C(=O)C12CC3CC(CC(C3)C1)C2 (centres undefined)	92	·	5.3	-12	2%
CC1CCCN(CC(O)CN)C1 (centres undefined)	-1	-21	0.0	3	0%
COc1ccc(/C=C/C(=O)Nc2nnc(C(C)C)s2)cc1OC	1	·	-1.2	·	-4%
Cc1cc(NC(=O)CCC(=O)N(c2ccccc2)C(C)C(=O)NC2CCCC2)no1 (centres undefined)	-3	·	-1.9	·	·
Cn1c(=N)n(CC(=O)O)c2ccccc21	-3	13	-1.3	-1	-2%
C#CCN1C(=O)C(O)(c2c(C)[nH]c3ccccc23)c2ccccc21 (centres undefined)	-8	·	2.2	·	-3%
COc1ccccc1N1C(=O)CCC1(C#N)c1ccccc1 (centres undefined)	4	-1	1.7	-1	-4%	Arbovirus inh repeat=0
COc1ccnc(CSC(N)=Nc2cccc(C(F)(F)F)c2)c1	9	-16	-7.1	4	-10%
N#Cc1cccc(C(=O)OCC(=O)NC(=O)NC2CCCCC2)c1	-5	·	-1.8	·	·
COC(=O)c1ccc(C2C(C#N)=C(N)Oc3cc(C)n(C)c(=O)c32)cc1 (centres undefined)	-3	-129	-2.0	2	0%
O=C(CSc1nnc(-c2ccccn2)n1-c1ccc(Cl)cc1)Nc1ccc2c(c1)OCO2	-2	-21	·	1	-1%
CCOc1ccc(Cl)cc1CSc1ncn[nH]1	3	-17	1.3	7	-2%
Cc1ccccc1OCC(=O)OC1CCN(C)CC1	-19	-7	2.0	7	-12%
COc1ccc(C2CC(=O)c3c(ccc4ccccc34)N2)cc1OC (centres undefined)	26	-34	-0.6	9	·
CCOc1ccc(NC(=O)CSc2nnc(C3CC3)n2N)cc1	26	-19	-0.9	-4	6%
O=C(Nc1ccc(Br)cc1)c1cc([N+](=O)[O-])cc([N+](=O)[O-])c1	98	·	1.0	·	·
Cn1c2ccccc2c2ncn(CCC3=CCCCC3)c(=O)c21	5	-10	7.9	-16	10%
COc1ccc(-c2nnc(N(C)C(=O)c3cccnc3)s2)cc1	7	-22	-3.4	0	0%
COc1ccc(C(C(=O)NC(C)(C)C)N(C(=O)CCC(=O)Nc2cc(C)on2)c2cccc(C)c2C)cc1 (centres undefined)	-7	·	-1.3	·	·
C=CCNC(=S)Nc1ccc(N(C)C)cc1	-15	·	-2.7	·	6%
CCOc1ccc(N(C)S(=O)(=O)c2cnc[nH]2)cc1	20	·	-1.7	·	·
C=C1c2ccccc2NC(=O)N1c1ccc(OC)cc1	-7	·	2.0	3	-7%
CC(C)Cn1c(SCC(=O)N2CCN(C(=O)c3ccco3)CC2)nc2ccccc2c1=O	0	·	0.9	16	0%

Already shown: 4 of the compounds above.
SMILES	Mtb bLac sens	YopH PTP inh	RecA intein inh	Arbovirus inh	Mtb growth	others
Cn1c2ccccc2c2ncn(CCC3=CCCCC3)c(=O)c21	5	-10	7.9	-16	10%
COc1ccc(-c2nnc(N(C)C(=O)c3cccnc3)s2)cc1	7	-22	-3.4	0	0%
COc1ccc(C(C(=O)NC(C)(C)C)N(C(=O)CCC(=O)Nc2cc(C)on2)c2cccc(C)c2C)cc1 (centres undefined)	-7	·	-1.3	·	·
C=CCNC(=S)Nc1ccc(N(C)C)cc1	-15	·	-2.7	·	6%
